Mtb H37Rv: Mycobacterium tuberculosis H37Rv growth inhibition, cell based, confirmatory dose response (AID 1949); inhibition, % at 10 µg/mL, or IC50 in µg/mL where a hit was titrated; 100,000 compounds, 1.6% hits; most inactive calls were filed without a number and no value below 0 was filed;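 active = confirmed in a dose series; inconclusive = about 50% or more but not retested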;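 also: bacteria grown 7 days with compound before Alamar blue readout; 0% = untreated bacteria and 100% = reference antibiotic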
Active calls of the source: *; i = inactive; ? = inconclusive. These rows are one share of the data; count on the stated rates, not on these rows.

cpd	smiles	Mtb H37Rv
1	CC(C)c1ccc(NC(=O)CNS(=O)(=O)c2ccc(Br)cc2)cc1	i
2	CCOc1cccc(NC(=O)c2ccccc2C(F)(F)F)c1	i
3	Cc1noc(NS(=O)(=O)c2ccc(NC(=O)COc3ccc(C(C)(C)c4ccccc4)cc3)cc2)c1C	1.7%
4	CCOc1ccc(NC(=O)Nc2ccc(Cc3ccncc3)cc2)cc1	i
5	O=[N+]([O-])c1nn(Cc2ccc(Cl)cc2Cl)cc1Cl	i
6	Cc1ccc(NC(=S)NC2CC(C)(C)NC(C)(C)C2)c(C)c1	i
7	C=Cc1ccc(COc2cc3oc(=O)cc(C)c3cc2Cl)cc1	i
8	O=c1ccc2cc(S(=O)(=O)NCC3CCCO3)ccc2o1 (stereo not given)	i
9	Cc1cc(C)nc(SCC(=O)N(C2CCCCC2)C2CCCCC2)n1	i
10	CC1=NN(c2ccccc2)C(=O)C1CCC(=O)N1CCCCC1 (stereo not given)	i
11	CC(NS(=O)(=O)c1ccc(Cl)cc1)C(=O)Nc1ccccc1Sc1ccccc1 (stereo not given)	i
12	CC(C(=O)NC1CC1)N1C(=O)c2ccccc2C1=O (stereo not given)	i
13	COC(=O)c1c(C)nc(C)c(C(=O)OC)c1-c1ccc(OC)c(OC)c1	2.2%
14	CCOc1ccc(CN2CCN(Cc3ccccn3)CC2)cc1	i
15	O=c1c2sc3nc(N4CCOCC4)c4c(c3c2ncn1-c1ccccn1)CCCC4	3.1%
16	Cc1ccc(F)cc1NC(=O)c1ccc2c(c1)OCO2	0.9%
17	CNC(=S)NCCC(c1ccccc1)c1ccccc1	0.2%
18	O=C(O)C1CC(=O)N(c2cccc(Br)c2)C1 (stereo not given)	i
19	CCOC(=O)C1CCCN(Cc2nc(N)nc(Nc3ccccc3)n2)C1 (stereo not given)	22.3%
20	COc1ccc(-c2csc(Nc3cccc(C)n3)n2)cc1C	i
21	COc1ccc(N2C(=O)NC(=O)/C(=C\c3ccc(N4CCCC4)cc3)C2=O)cc1	i
22	COc1cccc(C2CC(c3ccc(Cl)cc3Cl)Nc3nc(N)nn32)c1 (stereo not given)	32.5%
23	CC(C)COc1ccc(C(=O)NCc2ccccc2)cc1	i
24	COCc1cc(C)nc(SCC(=O)N2CCOCC2)c1C#N	8.8%
25	COc1cc(C(c2c[nH]c3ccccc23)c2c[nH]c3ccccc23)cc(I)c1O	26.8%
26	Cc1cc(Cl)c(OCCOCCn2cnc3ccccc3c2=O)c(Br)c1	i
27	CC(=O)Nc1cccc(-c2csc(N)n2)c1	i
28	Cn1c(CC(O)c2cccc3ccccc23)nc2ccccc21 (stereo not given)	4.1%
29	CN(Cc1ccccc1)C1CCN(Cc2ccc(Br)cc2)CC1	5.3%
30	CCOC(=O)c1c(NC(=O)/C(C#N)=C\c2ccc(-c3cccc(Cl)c3)o2)sc2c1CCCC2	i
31	Cc1oc2c(cc(O)c3ccccc32)c1C(=O)c1ccccc1	i
32	CC(=O)Oc1ccccc1N(C(C)=O)S(=O)(=O)c1ccc(Cl)cc1	i
33	O=C1CC(N2CCN(c3ccccn3)CC2)C(=O)N1c1ccc(F)c(Cl)c1 (stereo not given)	i
34	CSc1ccc(C2C3=C(CCCC3=O)NC3=C2C(=O)c2ccccc23)cc1 (stereo not given)	i
35	COCCNCCOCCOc1ccc(C(C)(C)C)cc1C	i
36	O=Cc1cn(CC(=O)N2CCOCC2)c2ccccc12	i
37	N#Cc1nc(-c2ccc(F)cc2)oc1NCC1CCCO1 (stereo not given)	i
38	CC1CCN(S(=O)(=O)c2cccc(C(=O)N(C)C3CCS(=O)(=O)C3)c2)CC1 (stereo not given)	i
39	CCC(=O)NC(=S)Nc1ccc(NC(=S)NC(=O)c2ccc(OCc3ccccc3)cc2)cc1	i
40	COc1ccc(-c2nnc(SCC(N)=O)n2-c2ccccc2)cc1	i

The last two compounds of the part before come first, to join the parts.
cpd	smiles	Mtb H37Rv
39	CCC(=O)NC(=S)Nc1ccc(NC(=S)NC(=O)c2ccc(OCc3ccccc3)cc2)cc1	i
40	COc1ccc(-c2nnc(SCC(N)=O)n2-c2ccccc2)cc1	i
41	COc1cc([N+](=O)[O-])ccc1NC(=O)CCN1C(=O)c2ccccc2S1(=O)=O	i
42	Cc1cc(C)nc(/N=C(/N)Nc2ccccc2Br)n1	i
43	CCS(=O)(=O)N1CC(C)N(S(=O)(=O)CC)CC1C (stereo not given)	i
44	C=C(C)CC1N(c2ccc(F)cc2)C(=O)C2C(C(=O)O)C3C=CC21O3 (stereo not given)	i
45	CCOc1ccccc1NC(=O)C(C)Sc1ccccc1 (stereo not given)	i
46	COc1cccc(-n2c(/C=C/c3ccccn3)nc3ccc(I)cc3c2=O)c1	i
47	CCOc1ccccc1NC(=S)NCCc1ccccc1	i
48	Cc1cc(C)cc(-c2nc(-c3ccc(Br)cc3)no2)c1	i
49	COc1ccc(Cl)cc1N(CC(=O)Nc1ccc2c(c1)OCCO2)S(=O)(=O)c1ccccc1	i
50	O=C(Nc1ccc(Cl)cc1C(F)(F)F)c1ccc(Cl)cc1	i
51	CCOc1ccc(Cl)cc1S(=O)(=O)Nc1cccc(SC)c1	i
52	Cc1ccc(S(=O)(=O)N2C(=O)CCC2C(=O)Nc2ccc3c(c2)OCCO3)cc1 (stereo not given)	i
53	CC(C)c1ccc(OCc2nnc(SCc3ccc([N+](=O)[O-])cc3)n2C)cc1	5.7%
54	Cc1ccnc(NC(=O)COc2ccc(Cl)cc2)n1	21.5%
55	C=CCNC(=O)c1ccccc1NC(=O)CN(c1cc(C)ccc1OC)S(C)(=O)=O	i
56	COc1ccccc1CNC(=S)Nc1cc(C)ccc1C	?
57	CCCCNS(=O)(=O)c1ccc(NC(=O)C(CC)c2ccccc2)cc1 (stereo not given)	i
58	O=C(CC1(O)C(=O)N(Cc2cccc3ccccc23)c2ccccc21)c1ccncc1 (stereo not given)	6.2%
59	O=C(COc1ccc2c(C(F)(F)F)cc(=O)oc2c1)c1ccc(-c2ccccc2)cc1	i
60	Cn1c(CN2CCOCC2)nc2cc(NS(=O)(=O)c3ccc(F)cc3)ccc21	2.5%
61	O=C(Nc1cc(C(=O)N2CCCC2)ccc1N1CCCC1)c1ccccc1	i
62	CCCCn1c2ccc(C)cc2c2n[nH]c(=S)nc21	i
63	CC(Oc1ccc(Br)cc1)C(=O)N1CCCCC1 (stereo not given)	i
64	Cc1ccc(C)n1NC(=O)c1ccc(F)cc1	i
65	Cc1ccc(NC(=O)COc2ccccc2C(=O)Nc2ccc(Cc3ccncc3)cc2)c(C)c1	i
66	Cc1cc(OC(=O)C2CCCCC2)ccc1Cl	i
67	CCCc1cc(=O)oc2cc(OCC(=O)Nc3ccc(C)c(Cl)c3)ccc12	i
68	CCOc1ccc2oc(-c3ccccc3)c(C(=O)NCCc3c[nH]c4ccccc34)c2c1	4.2%
69	COc1ccccc1NC(=O)c1c(NC(=O)c2ccco2)sc2c1CCC(C(C)(C)C)C2 (stereo not given)	i
70	Cn1c(CCc2ccccc2)nnc1SCC(=O)Nc1ccc(Br)cc1F	i
71	N#CC1=C(SCC(=O)NCc2ccccc2Cl)NC(=O)CC1c1ccccc1F (stereo not given)	i
72	O=C(COc1ccc(Br)cc1)Nc1cccc2ncccc12	?
73	CCc1cccc(C)c1NC(=O)c1cccc(Cn2nc(C)c(Cl)c2C)c1	i
74	COC(=O)c1c(NC(=S)Nc2ccn(C)n2)sc2c1CCCC2	i
75	O=C(COc1ccc([N+](=O)[O-])cc1)N1CCCC1	0.7%
76	COc1ccccc1CC1C(=O)C2CCN1CC2 (stereo not given)	i
77	Cc1cc2c(C)nc3c(C)cccc3c2o1	i
78	Cn1ccc(NC(=O)Nc2cccc(C(F)(F)F)c2)n1	i
79	Clc1c(OCCN2CCOCC2)ccc2ccccc12	3.9%
80	CC1=NN(c2nc3ccccc3[nH]2)C(=O)C1CCC(C)C (stereo not given)	10.2%
81	O=C(Nc1nc(-c2ccccc2)c2ccccc2n1)c1ccc(Cl)cc1	6.6%
82	CCN(CC)c1ccc(NC(=S)NC(=O)c2cccc(C)c2OC)c(C)c1	11.8%
83	Cc1ccc2cccc(OCCOc3ccc(Cl)c(C)c3)c2n1	0.8%
84	C=CCNC(=O)c1ccc(C(C)C)cc1	i
85	Cc1cccc(C(=O)Nc2ccc(S(=O)(=O)Nc3ccc(C)cc3C)cc2)c1	i
86	COc1ccc(/C=C(/C#N)S(=O)(=O)c2ccc(C)cc2)c(OC)c1	i
87	O=C(O)c1ccc(-n2nnnc2Oc2ccc(Br)cc2)cc1	i
88	Cc1cc(C)cc(C(=O)Nc2cccc(NC(=O)c3cccc(Cl)c3)c2)c1	8.0%
89	CN(CC(O)COc1ccccc1)C1CCCCC1 (stereo not given)	i
90	COc1ccc(-c2nc3nc(C)c(Cl)c(C)n3n2)cc1	i
91	Nn1c(SCCOc2ccccc2)nnc1-c1ccccc1Cl	i
92	CCOC(=O)c1cnn(-c2ccccc2)c1NC(=O)Cc1cccc(OC)c1	1.6%
93	CC(NC(=S)Nc1ccc(S(=O)(=O)Nc2ncccn2)cc1)C1CCCO1 (stereo not given)	i
94	COCCn1c(-c2ccc(F)cc2)n[nH]c1=S	i
95	CCC(C)(C)C(=O)Nc1nnc(C(F)(F)F)s1	i
96	Cc1ccc(N(CC(=O)N2CCCCCC2)S(=O)(=O)c2ccccc2)cc1	i
97	COc1ccccc1OCCOCCOc1ccccc1Br	i
98	O=C(Nc1ccc(N2CCN(Cc3ccccc3F)CC2)cc1)c1cccc2ccccc12	1.5%
99	Cc1cc(C)cc(OCC(=O)Nc2ccc(S(=O)(=O)N3CCOCC3)cc2)c1	0.7%
100	Cc1cccc(OCc2nnc(SCC(=O)Nc3ccc([N+](=O)[O-])cc3C)n2C)c1	i

Compounds shown so far that have a thiophene ring, fused or not:
cpd	smiles	Mtb H37Rv
15	O=c1c2sc3nc(N4CCOCC4)c4c(c3c2ncn1-c1ccccn1)CCCC4	3.1%
30	CCOC(=O)c1c(NC(=O)/C(C#N)=C\c2ccc(-c3cccc(Cl)c3)o2)sc2c1CCCC2	i
69	COc1ccccc1NC(=O)c1c(NC(=O)c2ccco2)sc2c1CCC(C(C)(C)C)C2 (stereo not given)	i
74	COC(=O)c1c(NC(=S)Nc2ccn(C)n2)sc2c1CCCC2	i

Results in sequence from the entries so far.
Entries 83–88 in Mtb H37Rv, in turn: 0.8%, i, i, i, i, 8.0%

Later entries:
cpd	smiles	Mtb H37Rv
101	Cc1ccc(OCC(=O)Nc2ccc(OC(C)C)cc2)c(Br)c1	i
102	COc1ccc(S(=O)(=O)NC(C)C(=O)NCc2ccccn2)cc1Cl (stereo not given)	i
103	COC(=O)c1sc(NC(=O)C(C)Oc2ccc(Cl)cc2C)c(C(=O)OC)c1C (stereo not given)	i
104	CCCCC(C(=O)OCC(=O)c1ccc(Cl)cc1)N1C(=O)C2C3C=CC(C4CC34)C2C1=O (stereo not given)	i
105	CCN(CCN)c1ccc2c(=O)[nH][nH]c(=O)c2c1	i
106	CCN1C(=O)C(CC(=O)Nc2ccc(C(=O)OC)cc2)N(CCN2CCOCC2)C1=S (stereo not given)	4.7%
107	Cc1nn(Cc2ccccc2)c(C)c1NC(=O)CSc1nc2sc3c(c2c(=O)n1C)CCC3	i
108	COCCCNC(=O)CN(c1ccc2c(c1)OCO2)S(C)(=O)=O	i
109	COc1cccc(CNc2nc(N)n(-c3ccccc3)n2)c1	1.4%
110	CCOC(=O)c1c(-c2ccc(OCC)cc2)csc1NC(=O)CCC(=O)O	i
111	Cc1cccc(C)c1N(CC(=O)N1CCCCC1)S(C)(=O)=O	i
112	Cc1ccc(N2CC(C(=O)NCc3ccccc3Cl)CC2=O)cc1 (stereo not given)	i
113	COC(=O)c1ccc(C(=O)OC)c(NC(=O)Cc2ccccc2OC)c1	i
114	COC(=O)Cc1csc(Nc2ccccc2Cl)n1	i
115	COc1ccc2c(c1)CC/C2=N/OC(=O)c1cc(Cl)ccc1OC	?
116	CC(Oc1ccc(F)cc1)C(=O)Nc1ccc(S(=O)(=O)Nc2nccs2)cc1 (stereo not given)	i
117	COc1ccc(S(=O)(=O)N(C)CC(=O)NC2CCCC2)cc1C	i
118	CC1CN(CCSc2ccc(Cl)cc2)CC(C)O1 (stereo not given)	2.9%
119	COc1cc(NC(=S)N2CCN(C/C=C/c3ccccc3)CC2)cc(OC)c1	i
120	CCOc1ccccc1NC(=O)c1cc2c(ccc3ccccc32)oc1=O	3.6%

Sorted by length of the SMILES (descending): 4 of the compounds above
cpd	smiles	Mtb H37Rv
104	CCCCC(C(=O)OCC(=O)c1ccc(Cl)cc1)N1C(=O)C2C3C=CC(C4CC34)C2C1=O (stereo not given)	i
106	CCN1C(=O)C(CC(=O)Nc2ccc(C(=O)OC)cc2)N(CCN2CCOCC2)C1=S (stereo not given)	4.7%
110	CCOC(=O)c1c(-c2ccc(OCC)cc2)csc1NC(=O)CCC(=O)O	i
105	CCN(CCN)c1ccc2c(=O)[nH][nH]c(=O)c2c1	i

Remaining list, next part.
cpd	smiles	Mtb H37Rv
121	CCCC(=O)Nc1ccc(Cl)c(NC(=O)c2ccccc2C)c1	i
122	O=C(Nc1cc(Cl)ccc1O)c1ccc(Br)o1	i
123	COC(=O)c1c(C)oc2ccc(NS(=O)(=O)c3cccc4ccccc34)cc12	2.2%
124	COc1ccc(NC(=O)C(C)Oc2ccc(OC)cc2)cc1 (stereo not given)	3.5%
125	CCC(=O)NC(=S)Nc1ccc(NC(=O)COc2ccccc2)cc1	?
126	O=C(Nc1ccc(N2CCN(Cc3ccccc3F)CC2)cc1)c1cccc(OCc2ccccc2)c1	i
127	CC(=O)c1c(C)oc2ccc(N(C(=O)c3ccncc3)S(=O)(=O)c3cc(C)ccc3C)cc12	i
128	CCC(C)(C)NC(=O)c1cc(Cl)ccc1OC	i
